Marburg entry inh: Marburg virus entry inhibition; Marburg virus pseudotyped entry inhibition, cell reporter; control for the full effect not named in the record; about a third of the inactives were read at about 46 µM; hit rate 1.8% among 300,000; Potency, µM (top dose mostly 37.8 µM), without a hit: top-dose activity change, negative = inhibition, hits mostly inhibitors; AID 540276; active = well fitted inhibition curve with a large enough effect; inconclusive = small, poorly fitted or top-dose-only effect, or effect the other way; inactive = flat fitted curve, though single readings scatter; tested in HEK293 cells; about a fifth of its hits are not listed in these tables; also: % is scaled to controls: 0 for no effect and ±100 for the full control effect; luciferase read-out
Cruzain Triton: blocks cruzain activity in presence of Triton detergent | P25779 | purified cruzain, Z-FR-AMC fluorescence, 0.01% Triton | Potency, µM, inactives show max response, negative = inhibition, actives largely listed as inhibitors | hit rate 0.43% among 200,000 | AID 1478; active = well fitted curve in the direction sought with a large enough effect; inconclusive = small, poorly fitted or top-dose-only effect, or another doubt; inactive = no such curve, though single readings can be large; an effect the other way counts as inactive or inconclusive;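 also: plate controls were neutral wells for no effect and buffer without enzyme for full effect; nearly all actives have a fitted effect of over 40% in size; top concentration of the series not given in the record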
Target sequence (P25779 123-467 limits assumed): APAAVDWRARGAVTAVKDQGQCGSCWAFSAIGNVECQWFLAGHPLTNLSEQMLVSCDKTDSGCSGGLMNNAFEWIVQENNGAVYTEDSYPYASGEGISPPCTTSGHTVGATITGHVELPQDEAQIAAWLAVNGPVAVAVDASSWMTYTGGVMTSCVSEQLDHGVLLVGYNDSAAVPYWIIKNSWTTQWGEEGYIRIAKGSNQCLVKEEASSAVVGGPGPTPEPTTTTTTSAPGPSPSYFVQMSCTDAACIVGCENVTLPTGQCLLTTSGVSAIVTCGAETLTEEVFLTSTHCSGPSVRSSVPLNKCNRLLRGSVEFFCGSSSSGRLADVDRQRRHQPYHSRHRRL
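Compounds were screened in titration against cruzain (1.5 nM) with 0.01% Triton X-100 to counter colloidal aggregation. Activity was the AMC fluorescence increase over 60 s after adding 2 uM Z-FR-AMC at pH 5.5.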
SARS PLP yeast: inhibitors of SARS-CoV papain-like protease in yeast; AID 485353; hit rate 0.19% among 330,000; S. cerevisiae expressing SARS-CoV PLpro, growth rescue; control for the full effect not named in the record; Potency, µM (highest dose often 32.9 µM), for inactives: at the top dose activity, positive = growth rescue; also: 0% is about no effect; nearly all actives have a fitted effect of over 55% in size; growth read by luminescence after 48 h
LASV entry inh: Lassa virus entry inhibition. Potency, µM (top dose mostly 37.9 µM), for inactives: top-dose activity change, negative = inhibition, actives largely listed as inhibitors. hit rate 1.2% among 300,000. Lassa virus pseudotype entry inhibition, cell reporter; control for the full effect not named in the record; active means well fitted inhibition curve with a large enough effect; inconclusive means small, poorly fitted or top-dose-only effect, or effect the other way; inactive means flat fitted curve, though single readings scatter; tested in HEK293 cells; also: % is scaled to controls: 0 for no effect and ±100 for the full control effect; nearly all actives have a fitted effect of over 50% in size; luciferase read-out
StopGo reporter: lowers the luciferase signal of an FMDV 2A StopGo reporter; Potency, µM (highest dose often 57.9 µM), without a hit: at the top dose signal change, negative = less light; hit rate 1.2% among 410,000; human cells with a luciferase reporter of 2A StopGo recoding; control for the full effect not named in the record; active = well fitted falling curve with a large enough effect; inconclusive = small, poorly fitted or top-dose-only effect; inactive = no such curve, though single readings can be large or run the other way; tested in HEK293T cells; also: % is scaled to controls: 0 for no effect and ±100 for the full control effect; nearly all actives have a fitted effect of over 45% in size; luciferase light after 4 h
NS1 inh: blocks influenza NS1 protein function; S. cerevisiae slowed by influenza A NS1, growth recovery by OD600; Potency, µM (highest dose often 46.1 µM), without a hit: top-dose activity, positive = more growth; hit rate 0.4% among 270,000; also: actives are rising curves; nearly all actives have a fitted effect of over 50% in size
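OD600 was taken as the measure of yeast growth restored by compound in an NS1-expressing S. cerevisiae strain. Cells had been washed out of glucose medium and diluted 1:100 into galactose -URA medium, pH 6.0.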
RE007 growth inh: less growth of the S. pombe RE007 Vpr strain; hit rate 0.21% among 360,000; S. pombe RE007 Vpr strain, BacTiter-Glo ATP luminescence, 24 h; control for the full effect not named in the record; Potency, µM (top dose mostly 92.2 µM), for inactives: top-dose activity change, negative = less growth; active = well fitted falling curve with a large enough effect; inconclusive = small, poorly fitted or top-dose-only effect; inactive = no such curve, though single readings can be large or run the other way;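 also: % is scaled to controls: 0 for no effect and ±100 for the full control effect; nearly all actives have a fitted effect of over 50% in size; the assay follows cell death caused by Vpr and the record does not say whether a fall means rescue or toxicity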
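Fission yeast strain RE007, carrying one chromosomally integrated HIV-1 vpr copy, was seeded at OD 0.01 in PMG+AL medium with 23 nL pinned compound. After 24 h at 30 °C and 99% humidity, viability was read by BacTiter-Glo luminescence.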
Cruzain noTriton: blocks cruzain activity in detergent-free assay; P25779; hit rate 2.3% among 200,000; Potency, µM, inactives show max response, negative = inhibition, actives largely listed as inhibitors; purified cruzain, Z-FR-AMC fluorescence, no detergent; AID 1476; active = well fitted curve in the direction sought with a large enough effect; inconclusive = small, poorly fitted or top-dose-only effect, or another doubt; inactive = no such curve, though single readings can be large; an effect the other way counts as inactive or inconclusive;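 also: plate controls were enzyme without inhibitor for no effect and buffer without enzyme for full effect; nearly all actives have a fitted effect of over 40% in size; top concentration of the series not given in the record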
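Purified cruzain at 1.5 nM, pre-incubated 15 min with compound at room temperature in 100 mM sodium acetate pH 5.5, 5 mM DTT, 0.00005% Triton X-100. Reaction started with 2 uM Z-FR-AMC; AMC fluorescence increase over 60 s gives rate.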
Starred values were filed as active, the others as inactive; ? = inconclusive; . = no result given; & = joins results of further samples; [ ] = dose if it differs, or a comment. Unless noted, calls follow the shape of the dose curve; as a rule, active means well fitted rising curve with a large enough effect; inconclusive means small, poorly fitted or top-dose-only effect; inactive means no such curve, though single readings can be large or run the other way. Potency is read from the fitted curve at half-maximal effect.

SMILES	Marburg entry inh	Cruzain Triton	SARS PLP yeast	LASV entry inh	StopGo reporter	NS1 inh	RE007 growth inh	Cruzain noTriton
CCOC(=O)C1CCN(C(=O)Nc2ccc(OCc3ccccc3)cc2)CC1	-5%[14.2 µM]	.	-1%	?	10%	-2%	9%	.
COc1ccccc1N(CC(=O)NCc1ccco1)S(=O)(=O)c1ccc(C)cc1	1%[46.1 µM]	.	0%	21%	-6%	-1%	16%	.
Cc1cc(Oc2ccccc2)nc(-c2ccccc2O)n1	4%	-6.4%	-13%	17%	23%	-32%	-13%	-5%
COc1ccc(N2CC(NC(=O)c3ccc4c(c3)OCO4)CC2=O)cc1OC (stereo unspecified)	.	0.1%	.	-11%[46.1 µM]	12%	.	.	-5%
CC(C)c1nc(SCC(=O)Nc2cccc3ccccc23)n[nH]1	?	.	-10%	13%	-14%	.	-9%	.
COc1ccc(/C=C/C(=O)c2ccc[nH]2)cc1OC	?	-3.4%	-1%	?	13%	-17%	-11%	-15%
O=S(=O)(NC1CCCC1)c1ccc(Br)s1	-15%	3.8%	-11%	0%	.	-20%	-8%	-3%
Cc1nc2ncnn2c(C)c1CCC(=O)N1CCN(c2ccccc2)CC1	5%[46.1 µM]	1.3%	.	9%[46.1 µM]	0%	.	.	-4%
CC1(C)CC(=O)C/C(=N/NC(=O)C2CCN(S(=O)(=O)c3cccs3)CC2)C1	9%	5.6%	-10%	2%	-15%	30%	13%	-9%
O=C(COC(=O)/C=C/c1cccc(C(F)(F)F)c1)NCc1cccs1	12%	.	-4%	-3%	-1%	.	2%	.
C=Cn1ccnc1P(O)(=S)c1nc(C)c(CCOC(C)=O)s1 (stereo unspecified)	2%[46.1 µM]	.	3%	14%[46.1 µM]	2%	.	?	.
COc1ccc(Cc2c(O)[nH]c(=S)[nH]c2=O)cc1	20%[46.1 µM]	.	10%	-1%[46.1 µM]	-15%	2%	14%	.
CC1CCN(CCOCCOc2ccccc2Br)CC1	1%[46.1 µM]	.	3%	-21%	-18%	0%	-16%	.
O=C(COc1cccc(-n2cnnn2)c1)NCCC1=CCCCC1	-4%[46.1 µM]	-4.1%	0%	10%	-43%	4%	-15%	-3%
O=c1nc2n(c3ncccc13)CCCCC2	-14%[46.1 µM]	.	-1%	.	2%	.	-6%	.
CCc1ccccc1NC(=O)NCc1ccc2c(c1)OCO2	?	.	5%	11%	16%	9%	7%	.
COc1ccc(N2CCN(C(=O)C3(C)CC3(Cl)Cl)CC2)cc1 (stereo unspecified)	11%	1.3%	-12%	2%	-8%	9%	17%	-13%
N=C1SCC(=O)N1c1ccc(Cl)cc1	.	.	6%	.	-19%	16%	-1%	.
CCOC(=O)COc1cc(N2C(=O)CSCC2=O)c(Cl)cc1Cl	-1%	-1.4%	7%	5%	.	-27%	-1%	8%
CC(CC#CCN1CCOCC1)OCCC#N (stereo unspecified)	22%	6.3%	-1%	-1%	-20%	4%	9%	5%
C/C=C(\C)CN1CCN(c2ccccc2F)CC1	6%	3.7%	4%	36%[14.3 µM]	2%	13%	-1%	5%
Cc1cc(C(=O)COC(=O)C2=NNC(=O)CC2)c(C)n1-c1ccccc1	6%	2.1%	-2%	-12%	?	3%	9%	5%
CCOc1ccccc1-n1c(SCC(=O)Nc2nccs2)nnc1-c1ccoc1C	-24%	-1.4%	10%	-11%	-8%	7%	0%	-2%
Cc1nc2sc(C(c3ccco3)N3CCC(Cc4ccccc4)CC3)c(O)n2n1 (stereo unspecified)	.	-8.0%	-21%	.	-21%	-32%	10%	?
COc1ccc(N(CC(=O)Nc2cccc(C(C)=O)c2)S(=O)(=O)c2ccc(NC(C)=O)cc2)cc1	.	.	1%	.	-20%	-1%	-17%	.
COc1ccc(CN2CCN(C(=O)C3CCC(CNS(=O)(=O)c4ccc(C)cc4)CC3)CC2)c(OC)c1OC (stereo unspecified)	?	.	0%	?	-28%	-8%	10%	.
COc1ccc(CCc2nnc(CCC(=O)N(C)Cc3ccnc4ccccc34)o2)cc1	?	.	0%	13µM*	?	-3%	5%	.
CCOc1ccc(NC(=O)CSc2ccc3nnc(-c4cccnc4)n3n2)cc1	.	.	0%	.	5%	24%	-5%	.
S=c1[nH]c2ccccc2n1Cc1ccccc1	0%&0%[46.1 µM]	.	6%	?	0%	13%	3%	.
CCOC(=O)c1sc2ncn(CC(=O)Nc3ccc(OC)c(Cl)c3)c(=O)c2c1C	-19%[46.1 µM]	1.7%	.	7%[46.1 µM]	-4%	.	.	-4%
Cc1cc(=O)n2cn[nH]c2n1	-8%[46.1 µM]	.	.	22%[46.1 µM]	15%	.	13%	.
O=C1NCCC/C1=N/Nc1ccc(F)cc1	22%[46.1 µM]	.	7%	-1%	9%	.	9%	.
Cc1ccc(C(=O)NC2CC(C)(C)NC(C)(C)C2)cc1S(=O)(=O)N1CCOCC1	14%	.	.	?	-19%	.	-3%	.
O=C(CSCCO)Nc1nccs1	17%	3.4%	-1%	-2%	-8%	-7%	2%	-4%
CCN(Cc1nc(-c2cccc(Cl)c2)no1)CC1CCCO1 (stereo unspecified)	1%[46.1 µM]	.	0%	2%	8%	-3%	-6%	.
CC(=O)Nc1ccc(NC(=O)CNC(=O)c2cccc(C)c2)cc1	6%[46.1 µM]	.	3%	7%[46.1 µM]	-8%	17%	5%	.
O=S(=O)(NCc1ccc2c(c1)OCO2)c1ccc(Cl)s1	3%	.	.	12%	51%[activator]	-23%	14%	.
CCOC(=O)C1=C(COC(=O)COc2ccccc2OCC)NC(=O)NC1C (stereo unspecified)	14%	.	-1%	2%[46.1 µM]	5%	.	19%	.
CCN1CCc2nc3ccccc3c(C(=O)Nc3ccc(NC(C)=O)cc3)c2C1	.	.	1%	.	-5%	-1%	-6%	.
Cc1cc(OCc2cc(C(=O)N3CCC(Oc4cccnc4)CC3)no2)cc(C)c1Cl	?	.	-16%	-17%	?	-45%	15%	.
CCC(C)c1ccc(NC(=S)NCc2cccnc2)cc1 (stereo unspecified)	-21%	-1.1%	?	2%	18%	3%	12%	19%
CC1CCc2c(C(=O)NCCN3CCOCC3)csc2C1 (stereo unspecified)	6%	0.6%	-11%	?	.	?	-2%	1%
CCC(C)n1c(O)c(C=NCCc2ccccc2)c(=O)[nH]c1=S (stereo unspecified)	.	.	0%	.	0%	5%	-11%	.
COC(=O)c1cc(S(=O)(=O)N2CCN(C3CCCCC3)CC2)c[nH]1	.	.	3%	.	-19%	-5%	15%	.
Cn1c(C(=O)NCc2cccnc2)cc2sccc21	-15%	4.1%	2%	14%	9%	1%	-6%	-12%
FC(F)(F)c1cc(-c2ccco2)nc(NCc2cccs2)n1	-42%	-16%	-10%	-8%	-20%	-68%	1%	0%
CCN(CCCNC(=O)C1CCN(S(=O)(=O)N2CCOCC2)CC1)c1cccc(C)c1	-6%	0.0%	2%	2%	0%	-11%	-3%	8%
CCOc1ccc(CN2CCCC(CNC(=O)c3ccc(F)cc3)C2)cc1CO (stereo unspecified)	.	.	-2%	.	-20%	1%	-5%	.
CC1CN(C(=O)CCn2c(=O)oc3ccccc32)CC(C)O1 (stereo unspecified)	20%	8.6%	9%	24%	2%	-12%	23%	12%
COc1cccc(-n2c(=O)c3c(C)c(C(=O)N(C)C)sc3n(Cc3cccc(C)c3)c2=O)c1	.	-0.4%	.	9%[46.1 µM]	-16%	.	.	-4%
CCOc1ccc2nc(NC(=O)CN3CCOCC3)sc2c1	?	.	3%	2%	0%	0%	17%	.
COc1cc(-c2ccccc2)nc(N)n1	?	4.5%	21%	12µM*	77%[activator]	?	-11%	3%
CCCCN(CCCNC(=O)C1CCN(S(=O)(=O)N2CCOCC2)CC1)c1ccccc1	?	1.0%	-22%	-25%	-28%	-17%	-18%	?
COc1ccc2cc(C(=O)/C=C/c3cc(OC)c(OC)c(OC)c3)ccc2c1	?	.	10%	-30%[46.1 µM]	-10%	11%	5%	.
CN(C)CCNC(=O)c1cc2c(s1)-c1ccccc1OC2	.	?	-3%	.	41%[activator]	3%	-6%	10µM*
NS(=O)(=O)c1ccc(NC(=O)CSc2nc3c(c(=O)[nH]2)CCCC3)cc1	?	.	2%	.	-11%	1%	13%	.
CN(C(=O)c1cc2c(=O)n3ccccc3nc2n1C)c1ccccc1	.	-2.0%	.	1%[46.1 µM]	37%[activator]	.	.	12%
ONC(=NCc1ccccc1)c1ccccc1	-17%	.	.	11%	29%	.	6%	.
CC(OC(=O)Cn1cnc2c1c(=O)n(C)c(=O)n2C)C(=O)NC(C)c1ccc(Cl)cc1Cl (stereo unspecified)	-11%	.	3%	-4%	-17%	.	0%	.
CCOC(=O)c1cc(C(=O)OCC)cc(-n2cc(O)c(C(=O)OCC)n2)c1	1%	4.7%	-4%	8%	-29%	11%	12%	8%

Next part.
SMILES	Marburg entry inh	Cruzain Triton	SARS PLP yeast	LASV entry inh	StopGo reporter	NS1 inh	RE007 growth inh	Cruzain noTriton
COc1ccc(OCC#CCNC(C)(C)C)cc1	?	1.7%	1%	-4%	5%	4%	-3%	-4%
COc1ccc(-c2cn3ccc(C)cc3n2)cc1	.	.	-10%	.	-42%	-32%	?	.
COCCCNC(=O)c1ccccc1Oc1ccccc1	1%[46.1 µM]	1.8%	-3%	8%	-10%	1%	-1%	-1%
CCc1ccc(C(=O)C(C)OC(=O)CNS(=O)(=O)c2ccc(C)cc2)cc1 (stereo unspecified)	7%	.	-13%	?	42%[activator]	.	9%	.
COc1cc(OC)c(OC)cc1CN1CCN(Cc2ccc(C(F)(F)F)cc2)CC1	.	.	-4%	.	?	8%	-2%	.
CN(C)c1ccc(C(C(=O)NCC2CCCO2)N(Cc2ccco2)C(=O)c2snc(C(N)=O)c2N)cc1 (stereo unspecified)	?	.	6%	4%	22%	5%	4%	.
CCC(=O)Nc1ccc(C(=O)NNC(=O)COc2cccc(C)c2)cc1	?	-1.3%	-10%	4%	2%	4%	-13%	-3%
CCc1nnc(NS(=O)(=O)c2ccc(NC(=O)COc3ccc(Cl)c(C)c3)cc2)s1	?	.	3%	17%[46.1 µM]	-7%	.	-7%	.

High-throughput results as filed in PubChem BioAssay.

Compounds as they come, and some 4.7% of all compounds hit somewhere here.
